# AF4-AF9 inh – MLL-AF4/AF9 protein interaction inhibition | AID 651704 | actives 0.47% (n = 350,000) | inhibition, % at 10 µM | AlphaScreen, biotin-AF4 peptide binding to FLAG-AF9;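 active means every replicate reaching a set inhibition limit, whatever the replicate mean, cut at about 25% in these data; inconclusive means mean inhibition reaches that limit but some replicates miss it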;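 further: 0% = plate neutral control median and 100% = total signal loss; the record names both 10 and 1 µM as test concentration; the first replicate is given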
# Target sequence (P42568 whole entry, looked up): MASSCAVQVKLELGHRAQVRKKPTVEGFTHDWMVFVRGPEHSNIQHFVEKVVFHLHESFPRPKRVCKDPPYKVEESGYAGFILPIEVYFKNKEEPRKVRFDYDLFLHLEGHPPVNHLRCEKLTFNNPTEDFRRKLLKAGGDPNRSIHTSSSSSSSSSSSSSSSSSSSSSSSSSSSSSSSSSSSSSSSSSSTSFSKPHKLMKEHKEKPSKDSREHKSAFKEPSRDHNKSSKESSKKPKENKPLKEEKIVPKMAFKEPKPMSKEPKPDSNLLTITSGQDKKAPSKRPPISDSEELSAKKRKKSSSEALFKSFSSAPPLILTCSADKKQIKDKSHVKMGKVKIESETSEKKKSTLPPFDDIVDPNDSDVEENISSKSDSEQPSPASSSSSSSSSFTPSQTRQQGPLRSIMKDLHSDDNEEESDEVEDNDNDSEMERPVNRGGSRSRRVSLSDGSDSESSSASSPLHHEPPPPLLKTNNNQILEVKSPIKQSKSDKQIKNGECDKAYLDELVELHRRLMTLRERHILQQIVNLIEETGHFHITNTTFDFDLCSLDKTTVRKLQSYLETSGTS
# FGF22 binding – binders of recombinant human FGF22 by thermal shift; Q9HCT0; SYPRO orange fluorescence; percent of sucrose octasulfate shift, DMSO zero; calls only at 9.99 µM; actives 1.5% (n = 340,000); AID 651658;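 active means melting point raised past a set limit in the mean and every replicate; inconclusive means no clear call; three in four hits are not shown here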
# Target sequence (Q9HCT0 whole entry, looked up): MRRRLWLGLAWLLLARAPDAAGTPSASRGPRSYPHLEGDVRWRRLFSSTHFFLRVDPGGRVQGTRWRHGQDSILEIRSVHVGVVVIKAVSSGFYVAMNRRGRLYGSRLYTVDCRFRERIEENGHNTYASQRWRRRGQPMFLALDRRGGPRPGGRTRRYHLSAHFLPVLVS
# Calb FLC – C. albicans growth modulation with fluconazole | C. albicans CaCi-2 (fluconazole-resistant clinical isolate) + fluconazole, Alamar Blue growth, 48 h | growth inhibition, % (no concentration beside the values) | actives 0.57% (n = 300,000) | AID 1979;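 active means most replicates above 75%; inconclusive means exactly half above 75%; inactive means most below 75%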;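 further: all wells also contain fluconazole at 8 µg/ml as a sub-toxic cotreatment; 0% = median of DMSO wells and 100% = median of geldanamycin control wells; wells of about 8 µL received 7.5 nL stock; the first replicate is given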
# ALR inh – blocks human ALR sulfhydryl oxidase activity | inhibition, % (concentration not given with the values) | actives 3.8% (n = 290,000) | purified ALR, DTT oxidation, H2O2 HRP-luminol luminescence;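 active means mean and each replicate at 75% or more; inconclusive means only one of the two met; inactive means neither met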;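 further: stock transfer was 7.5 nL into about 7.5 µL; 0% = neutral wells and 100% = wells with inactivated enzyme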
# Target sequence (P55789 whole entry, looked up): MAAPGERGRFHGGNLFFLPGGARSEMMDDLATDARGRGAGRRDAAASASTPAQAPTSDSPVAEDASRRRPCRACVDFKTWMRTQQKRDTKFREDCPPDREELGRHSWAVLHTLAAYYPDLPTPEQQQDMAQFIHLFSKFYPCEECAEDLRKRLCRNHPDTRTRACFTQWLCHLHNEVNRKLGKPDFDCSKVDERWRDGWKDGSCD
# rRNA inh HTS – selective bacterial rRNA inhibition in E. coli. E. coli WT GFP vs humanized-ribosome RFP mutants, fluorescence, 24 h; stronger effect = lower value; DMSO median 0, no signal -100. GFP signal change (wild-type ribosome), % (concentration not given with the values). actives 1.6% (n = 350,000);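 active means significant combined selectivity score with lowered wild-type GFP, culture density cut under 30%, mutant RFP and density less affected; inactive means any of these conditions unmet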; further: one replicate is shown; some compounds called inactive have numbers as strong as hits
# T cruzi inh – blocks replication of Trypanosoma cruzi; inhibition, % (test concentration not listed); T. cruzi beta-gal in NIH3T3, luminescence, 90 h; actives 1.4% (n = 300,000);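 active means mean inhibition across valid replicates above about 55%, limit read from the data; inconclusive means mean below that limit but half or more replicates reach it; inactive means mean below it, under half of replicates reach it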;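 further: signal also drops with host cell toxicity which is not excluded here; 0% = plate median of DMSO wells and 100% = zero luminescence signal; higher percent means less beta-gal luminescence so fewer parasites; stock transfer was 50 nL into about 50 µL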
# RanGTP-Impb inh – disruptors of Ran-importin-beta complex formation – biochemical, FRET, CFP-Ran, YFP-importin-beta, homogeneous, primary screen. cell-free CFP-Ran/YFP-importin-beta FRET ratio. inhibition, % (concentration not given with the values). actives 1.1% (n = 300,000);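 active means most replicates above 15%; inconclusive means exactly half above 15%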;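 further: 0% = DMSO wells and 100% = Ran loaded with GDP instead of GTP; wells of about 40 µL received 100 nL stock; the first replicate is given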
# Beta cell apopt – blocks beta cell apoptosis; INS-1E cytokine-induced death, ATP luminescence, 48 h; percent of positive-control rescue, neutral wells zero; protection from apoptosis, % (no concentration beside the values); actives 0.8% (n = 300,000);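 active means all replicates at 75% or more, or half of them and the mean; inconclusive means half reach 75% but not the mean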;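 further: 0% = cytokine-treated negative control wells and 100% = positive control rescue; higher means more ATP so stronger rescue from cytokine killing; wells of about 40 µL received 100 nL stock; the first replicate is given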
# rRNA inh HTS OD600 – further read-out of rRNA inh HTS, marked with its call; OD600 change, %; measured here: OD600 growth;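 optical density of the mix in the first replicate; 0 = DMSO median and -100 = no signal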
# rRNA inh HTS RFP – also measured in rRNA inh HTS; calls as there; RFP signal change, %; measured here: RFP humanized mutant strains;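 first replicate; 0 = DMSO median and -100 = no signal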
# * = called active by the depositor; i = inactive; ? = inconclusive; / = no result given; & = joins results of further samples.
molecule	ALR inh	Calb FLC	rRNA inh HTS RFP	rRNA inh HTS	RanGTP-Impb inh	T cruzi inh	rRNA inh HTS OD600	AF4-AF9 inh	FGF22 binding	Beta cell apopt
COC(=O)c1nn(-c2cccc(C)c2)c2nnc(Cc3ccc(C)cc3)c(=O)n12	1	0	/	/	-1.6	-6	/	/	/	0
CSc1nc(C)cc(C)c1S(=O)(=O)c1ccccc1C	0	-4	/	/	2.5	7	/	/	/	-14
COc1ccc(-c2noc(CCC(=O)NCCN3CCN(c4ccccc4F)CC3)n2)cc1	2	-37	/	/	0.2	4	/	/	/	11
COc1cccc(NC(=O)NC2CCN(CC(=O)Nc3ccccc3[N+](=O)[O-])CC2)c1	-1	15	-3.0	-7	-0.4	17	-10	4.1	i	4
CC(C)NC(=O)c1ccccc1NC(=O)CCc1ccccc1	-4	24	/	/	?	3	/	/	/	5
O=C1c2ccccc2C(O)N1Cc1ccc2c(c1)OCO2 (stereo not given)	-13	2	-4.6	4	5.2	-10	-11	6.8	i	3
COc1cc(NC(=O)C2CCC(CNc3c(N4CCC(C)CC4)c(=O)c3=O)CC2)cc(OC)c1 (stereo not given)	0	-6	1.4&-1.2	-9&-5	0.8	-3	4&-3	0.8&-2.7	i	5
CCc1ccc(NC(=O)c2cc(CC(C)C)on2)cc1	1	1	-4.6	8	5.6	-7	3	0.4	i	-4
CCN1C(=O)c2ccccc2S(=O)c2ccc(C(=O)NCc3ccccn3)cc21 (stereo not given)	-19	2	-2.4	2	-1.6	2	-9	1.2	i	8
C=C(C)Cn1c(C2CC(=O)N(c3ccccc3F)C2)nc2ccccc21 (stereo not given)	-8	-5	-2.3	-4	2.3	-2	-11	-3.4	i	0
O=C(NNC(=O)c1sccc1-n1cccc1)c1ccccc1	0	-4	/	/	-3.4	2	/	/	/	-3
CCC(O)(CC)C(=O)N=Nc1c(O)[nH]c2ccccc12	/	-8	1.2	12	1.7	-5	5	-14	i	0
CC(C)(C)C1C=C(Sc2ccccc2)C(=O)O1 (stereo not given)	-6	-1	/	/	1.6	-13	/	/	/	-6
Cn1c(C(F)(F)F)nc2c(=O)oc3ccccc3c21	-12	-10	/	/	-2.6	-4	/	/	/	-7
S=C(NCc1ccco1)NCc1ccccc1Cl	-9	-44	-1.5	-8	-5.2	-5	-10	1.9	i	-1

# The list goes on:
molecule	ALR inh	Calb FLC	rRNA inh HTS RFP	rRNA inh HTS	RanGTP-Impb inh	T cruzi inh	rRNA inh HTS OD600	AF4-AF9 inh	FGF22 binding	Beta cell apopt
Cc1nc2sc(C(c3ccco3)N3CCN(c4ccccc4F)CC3)c(O)n2n1 (stereo not given)	2	14	/	/	-0.3	8	/	/	/	-5
CC(=O)c1ccc(NC(=O)CCNS(=O)(=O)c2cccc3nonc23)cc1	3	-3	/	/	-1.5	-11	/	/	/	-8
COc1ccc(CN2CCCC(N3CCN(c4ccc(OC)cc4)CC3)C2)cc1 (stereo not given)	/	2	-2.4	8	-0.4	36	3	6.3	i	/
CC(O)CNc1nc2ccccc2n1CC(=O)NC12CC3CC(CC(C3)C1)C2 (stereo not given)	-2	9	8.6	-14	22*	-13	-36	-3.0	i	-6
Cc1nc2c(c(C)nn2-c2ccccc2)c(C)c1C	-7	2	1.2	11	-3.6	-6	9	-3.0	i	-1
COc1ccc(CNS(=O)(=O)CCNC(=O)c2cccc(OC)c2)cc1	-8	-9	-0.9	6	-1.8	-4	3	-1.5	/	-7
CCn1c(-c2ccc(Cl)cc2)n[nH]c1=S	98*	2	/	/	0.1	3	/	/	/	/
Cc1ccccc1OCCC(=O)OCC(=O)NNC(=O)c1cccs1	3	/	4.0	-7	/	/	-8	0.4	i	-7
COC(=O)CCC(=O)Nc1ccc(S(=O)(=O)Nc2nc(C)cc(C)n2)cc1	-11	-3	-1.0	-15	1.9	-10	-1	0.7	i	-4
COC(=O)c1ccc(N(CC(=O)NC2CCCC2)C(=O)c2ccc(C)s2)cc1	2	22	-0.3	0	5.9	-4	-6	-7.4	i	2
CCN(CC)C(=O)c1sc(N)c(C#N)c1C	11	2	/	/	3.5	14	/	/	/	-2
C=CCOC(=O)C1=C(C)NC(=O)NC1/C=C/c1ccccc1 (stereo not given)	-23	-2	/	/	4.9	-13	/	/	/	0
N#Cc1cc(S(=O)(=O)N2CCOCC2)ccc1N1CCOCC1	-6	10	-5.5	6	-0.2	-10	16	-5.8	i	0
O=C(NCc1ccccc1)C(=O)NCC1OCCN1S(=O)(=O)c1ccc2c(c1)OCCO2 (stereo not given)	-3	-2	-0.1	3	5.6	-6	10	7.9	i	-2
CCOc1ccc(S(=O)(=O)N2CCOCC2)cc1[N+](=O)[O-]	-26	1	0.5	-1	3.0	8	5	3.5	i	-4

# Next part; it opens with the two that closed the last part.
molecule	ALR inh	Calb FLC	rRNA inh HTS RFP	rRNA inh HTS	RanGTP-Impb inh	T cruzi inh	rRNA inh HTS OD600	AF4-AF9 inh	FGF22 binding	Beta cell apopt
O=C(NCc1ccccc1)C(=O)NCC1OCCN1S(=O)(=O)c1ccc2c(c1)OCCO2 (stereo not given)	-3	-2	-0.1	3	5.6	-6	10	7.9	i	-2
CCOc1ccc(S(=O)(=O)N2CCOCC2)cc1[N+](=O)[O-]	-26	1	0.5	-1	3.0	8	5	3.5	i	-4
COc1ccc(S(=O)(=O)N(C)C[C@H]2Oc3ccc(NS(=O)(=O)c4ccc(F)cc4)cc3C(=O)N([C@H](C)CO)C[C@@H]2C)cc1	-2	/	1.6&-5.5	-3&-4	/	/	3&-5	-1.5&4.0	i	6
Cc1ccc(C)c(NS(=O)(=O)c2ccc(-c3ccc(=O)[nH]n3)o2)c1	2	15	-4.5	1	-0.4	-8	-2	-0.8	i	-12
CS(=O)(=O)N1CCCC(C(=O)Nc2ccccc2F)C1 (stereo not given)	/	0	4.6	4	-2.5	-5	6	-3.2	i	1
Cc1cc(C(=O)N/N=C/c2c(C)nn(-c3ccccc3)c2C)n[nH]1	-10	3	0.6	9	2.5	-33	4	1.6	i	-5
COc1cc(C)c(S(=O)(=O)NCCCn2ccnc2)cc1C	-7	-8	-3.0	1	?	-2	3	-11	i	0
Cc1cc(OCc2cc(C(=O)NCc3cc(C(C)C)no3)no2)cc(C)c1Cl	-8	-13	1.7	15	-2.9	-2	20	-1.1	i	-4
CN(C)C(CNC(=O)C1CCCN1C(=O)c1cccs1)c1ccccc1 (stereo not given)	-16	/	1.5	13	/	/	17	-4.5	/	-2
O=c1cnnc(Nc2cccc(C(F)(F)F)c2)[nH]1	7	10	-2.0	2	0.3	-14	-3	-2.2	i	1
O=C(CSc1nncn1-c1ccccc1)NC1CCCCC1	/	17	-1.2	-7	-2.8	-1	-6	-1.7	i	-4
CC(=O)Nc1ccc(S(=O)(=O)N2CCC(C(=O)NCCC(=O)NCc3ccccc3)CC2)cc1	-15	-7	-1.1	1	1.2	-10	6	-0.6	i	5
COc1cc(C)c(NC(=O)Cc2ccsc2)cc1OC	-25	-7	0.1	2	-3.4	12	10	-1.6	i	-2
Cn1c(=NC(=O)CCS(=O)(=O)c2ccccc2)sc2cc(F)ccc21	/	0	1.8	17	1.1	5	9	-0.5	i	/
O=C(NN1C(=O)C2C3C=CC(C3)C2C1=O)C(O)c1ccccc1 (stereo not given)	-15	11	-2.1	14	3.3	-8	6	-3.9	i	15
Cc1c(Cl)cccc1NC(=O)Nc1cccnc1	-8	-1	-1.2	-14	?	-1	-10	0.3	i	4
S=C(Nc1ccccc1)N1CCn2c1nc1ccccc12	-4	4	/	/	?	-1	/	/	/	-1

# (further entries)
molecule	ALR inh	Calb FLC	rRNA inh HTS RFP	rRNA inh HTS	RanGTP-Impb inh	T cruzi inh	rRNA inh HTS OD600	AF4-AF9 inh	FGF22 binding	Beta cell apopt
CC(C)C(=O)NCC(c1cccs1)S(=O)(=O)c1ccc(F)cc1 (stereo not given)	-1	-10	-3.1	2	-0.1	11	8	-2.7	i	-6
CC1CCN(C(=O)c2ccc(NS(C)(=O)=O)cc2)CC1	/	-1	/	/	-1.1	2	/	/	/	3
CCOC(=O)C1(Cc2ccc(OC)cc2)CCN(C(=O)C2=CCCC2)CC1	-9	32	5.8	-24	-1.0	-11	-18	-2.9	i	-6
N#CCCN1CCNCC1	-3	0	/	/	1.8	-24	/	/	/	-9
CC(C)(C)C1CCc2[nH]c3ccccc3c(=O)c2C1 (stereo not given)	19	23	/	/	-0.8	59*	/	/	/	10
O=C(Nc1ccc(F)c(F)c1)c1oc2ccccc2c1NC(=O)C1CCCO1 (stereo not given)	/	-4	-1.3	5	/	/	12	-0.4	i	6
CCOC(=O)c1nnn(-c2nonc2N)c1CN1CCc2ccccc2C1	/	1	/	/	5.7	2	/	/	/	-5
NC(=O)[C@H]1CC2(CC(c3cccc(NC(=O)COc4ccc(Cl)cc4)c3)=NO2)CN1C(=O)CC(c1ccccc1)c1ccccc1 (stereo not given in full)	-7	13	2.8	6	-0.9	49	11	-0.2	i	13
O=C(O)c1cc(Cl)ccc1OS(=O)(=O)c1ccc(Cl)s1	2	/	-0.9	-5	/	/	3	1.2	i	-5
COCCNC(=S)N(CCc1c(C)[nH]c2ccc(C)cc12)Cc1ccco1	50	44	10	-30	-4.1	8	-26	8.4	i	-2
CC1CCCC(NC(=O)c2ccc3c(=O)n(CC4CCCO4)c(=O)[nH]c3c2)C1C (stereo not given)	-3	1	/	/	2.6	-3	/	/	/	/
COc1ccc(/C=C2\Sc3ccc(C(=O)NCc4cccnc4)cc3N(C)C2=O)cc1OC	/	7	35	-25	5.7	0	-4	4.0	i	0
Cc1ccccc1-n1ncc2c1CC(C)(C)CC2NC(=O)CCCN1CCCC1=O (stereo not given)	0	-6	8.2	10	-0.7	-5	9	-1.8	i	-7
Cc1cccc(NC(=O)CSCc2cc(=O)n3c(C)csc3n2)c1C	-4	18	0.7	8	3.1	-2	9	-3.2	i	-1
NS(=O)(=O)c1ccc(CNC(=O)c2ccc3ccccc3n2)cc1	0	-13	-18	-54	-0.9	-11	-74	0.8	i	-1

# Additional records:
molecule	ALR inh	Calb FLC	rRNA inh HTS RFP	rRNA inh HTS	RanGTP-Impb inh	T cruzi inh	rRNA inh HTS OD600	AF4-AF9 inh	FGF22 binding	Beta cell apopt
O=C1CC(C(=O)Nc2ccccc2)S/C(=N\N=C\c2ccco2)N1 (stereo not given)	1	-4	/	/	-1.7	-4	/	/	/	-2
CCN(CC)CCCNC(=O)CCC(=O)NNc1nc2ccccc2c2nc(C)nn12	-3	16	-1.9	4	2.3	-16	6	-0.3	i	-8
C=CCNC(=S)Nc1ccc(Cl)cc1F	-43	-2	-5.3	-6	-0.7	-7	-23	-11	i	-6
COC(=O)c1ccccc1S(=O)(=O)N(Cc1ccco1)Cc1cc2cc(OC)ccc2[nH]c1=O	-3	1	/	/	1.0	-3	/	/	/	-3
Cc1cc(C(=O)Nc2cccnc2)cs1	0	-21	/	/	5.7	-7	/	/	/	-6
O=C(N/N=C\c1ccc(Cl)s1)c1ccc(Cn2cccn2)o1	-2	2	-6.1	-4	-1.9	-15	7	-3.7	i	-4
O=C(NC1CC2CCCC(C1)N2Cc1ccco1)NC12CC3CC(CC(C3)C1)C2 (stereo not given)	-28	-25	/	/	1.7	27	/	/	/	9

# Some of the compounds tested; the hit share may differ from the screen's.
